KCNQ2 inh: KCNQ2 potassium channel inhibitors, primary screen, cell-based, CHO-K1, FluxOR thallium flux, B-score (AID 2156). O88943. 20 min; active compounds read low; only compounds with negative scores are shown here; some inactives read as strong as hits. B-score at 10 µM. 1.1% of 310,000 active;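 active = fluorescence ratio B-score at most minus 3 library SDs, with starting brightness B-score within 2 library SDs, cut at about -5.5 in these data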
Target sequence (O88943 whole entry, looked up): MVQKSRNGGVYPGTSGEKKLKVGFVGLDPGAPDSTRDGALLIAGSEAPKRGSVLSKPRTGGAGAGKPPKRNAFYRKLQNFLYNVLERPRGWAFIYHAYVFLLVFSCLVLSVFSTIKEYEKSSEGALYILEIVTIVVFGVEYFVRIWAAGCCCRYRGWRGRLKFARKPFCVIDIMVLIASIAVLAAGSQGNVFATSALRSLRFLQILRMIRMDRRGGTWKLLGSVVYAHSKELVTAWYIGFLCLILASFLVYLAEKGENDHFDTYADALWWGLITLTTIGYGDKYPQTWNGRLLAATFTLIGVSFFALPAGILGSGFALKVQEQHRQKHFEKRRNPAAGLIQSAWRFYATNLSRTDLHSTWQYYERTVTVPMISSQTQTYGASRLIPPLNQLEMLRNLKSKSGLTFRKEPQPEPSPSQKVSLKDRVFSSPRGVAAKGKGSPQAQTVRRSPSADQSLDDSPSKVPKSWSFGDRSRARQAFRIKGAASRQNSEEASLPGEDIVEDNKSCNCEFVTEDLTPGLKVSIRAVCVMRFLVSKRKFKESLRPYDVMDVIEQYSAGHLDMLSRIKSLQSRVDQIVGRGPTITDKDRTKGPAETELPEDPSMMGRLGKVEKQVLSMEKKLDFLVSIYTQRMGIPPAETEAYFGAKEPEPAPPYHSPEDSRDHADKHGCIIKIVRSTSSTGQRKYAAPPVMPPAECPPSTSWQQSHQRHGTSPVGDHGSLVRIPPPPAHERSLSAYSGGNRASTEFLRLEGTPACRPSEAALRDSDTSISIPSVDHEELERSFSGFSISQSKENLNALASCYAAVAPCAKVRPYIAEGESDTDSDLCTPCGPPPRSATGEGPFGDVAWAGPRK
KCNQ2 inh baseline: also measured in KCNQ2 inh; calls as there; B-score; measured here: initial fluorescence intensity artifact check;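 brightness before thallium and not channel activity; 0 = typical well and far values either way flag optical interference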
* hit, by the source's call; i = inactive. These rows are one share of the data; count on the stated rates, not on these rows.

Values in the order: KCNQ2 inh | KCNQ2 inh baseline
Cc1cc(-c2ccc(C(C)C)c(S(=O)(=O)N3CCOc4ccccc43)c2)on1
  i | -1.7
Cc1ccc(F)cc1NC(=O)N1c2ccccc2NC(=O)CC1C (configuration not stated)
  i | 4.5
CCOC(=O)c1sc(/N=C/N(C)C)c(C(=O)OCC)c1C
  i | 0.29
CCOC(=O)C1CCCCN1Cc1ccc(-c2ccccc2)cc1 (configuration not stated)
  i | 1.1
O=c1ccc(=O)n2n1CC(O)C2
  i | 0.29
CCOc1cc(NC(=S)NCCCN(C)C)c(OCC)cc1NC(=O)C1CC1
  i | -0.19
CCC(C)Sc1ccc(-c2nc3ccc(C)cn3c2NC2CCCCC2)cc1 (configuration not stated)
  i | -1.2
COCCn1c(C)cc(C(=O)COC(=O)c2ccc3c(c2)NC(=O)CS3)c1C
  i | -0.98
CCCn1c(-c2ccc(F)cc2)n[nH]c1=S
  i | -0.01
Cc1ccc(N(Cc2ccccc2)C(=O)c2cc(S(=O)(=O)N3CCOCC3)ccc2C)cc1
  i | -0.91
CCOC(=O)c1ccc(N2C(=O)CC(NC3CCN(C(=O)c4cccc(Cl)c4)CC3)C2=O)cc1 (configuration not stated)
  i | -0.11
COc1ccccc1OCC(=O)OC/C(O)=C(\C#N)c1nc2ccccc2[nH]1
  i | -0.24
COCC(C)N=C1SCCN1Cc1ccccc1 (configuration not stated)
  i | -0.08
O=C(O)C1CCCCC1C(=O)Nc1nccs1 (configuration not stated)
  i | 0.41
O=C(NCCCN1CCOCC1)c1cc(-c2ccc(Br)cc2)on1
  i | 1.8
Cc1ccc2c(C)c(C(=O)N(Cc3cccs3)C3CCS(=O)(=O)C3)oc2c1 (configuration not stated)
  i | 0.27
Cc1cc(C)c2nc(N3CCC(C(=O)N4CCCC4)CC3)sc2c1
  i | -0.43
OC[C@H]1O[C@@H](Oc2cc(O)cc(/C=C/c3ccc(O)cc3)c2)[C@H](O)[C@@H](O)[C@@H]1O
  i | 0.01
CCc1nnc(NC(=O)CSc2nnnn2-c2cccc(C(C)=O)c2)s1
  i | 0.49
CC(=O)c1cccc(N(CC(=O)NC2CCCCC2)C(=O)CCC(=O)Nc2nc(C)cs2)c1
  i | -0.1
CC1=C(C(=O)NCCCOC(C)C)C2(CCC(C)CC2)OC1=O (configuration not stated)
  i | 0.88
COc1cc(/C(C)=N/Nc2ccc(C(=O)O)cc2)cc(OC)c1OC
  i | -0.27
Cn1c(CSCc2ccc(Cl)cc2)n[nH]c1=S
  i | 0.71
Cc1cc(C(F)(F)F)nn1CC(=O)NNC(=S)Nc1ccc(Cl)cc1
  i | 2
CCN(CC)c1ccc2cc(/C(N)=N/NC(=O)c3cccs3)c(=O)oc2c1
  i | 1.7
CCC(=O)N1CCc2cc(S(=O)(=O)NC(Cc3ccccc3)C(=O)NC3CCCC3)ccc21 (configuration not stated)
  i | -0.18
CCOc1ccccc1N1CC(C(=O)Nc2ccccc2N2CCCC2)CC1=O (configuration not stated)
  i | -0.03
O=C(O)c1ccc(S(=O)(=O)c2ccc(Sc3ccc(C(=O)O)c(C(=O)O)c3)cc2)cc1
  i | 1.9
COc1ccc(CSCC(=O)NCCC(C)C)cc1
  i | -0.07
CCCC(=O)Nc1nnc(-c2ccc3c(c2)OCCO3)o1
  i | -0.79
Cc1nn(-c2ccccc2)c(C)c1NC(=O)COC(=O)c1cccc(OC(F)F)c1
  i | -0.3
CCCCCn1c(C(Cc2ccccc2)NC(=O)COC)nc2ccccc21 (configuration not stated)
  i | -0.31
Cn1cccc1Cc1nnc(SCC(=O)N2CCc3ccccc32)n1-c1ccc(F)cc1
  i | 0.85
CCSc1nc2ccccc2n1C(=O)/C=C\c1ccc(OC)c(OC)c1
  i | 1.2
CC(C)c1nc2oc3c(NCC4CCCO4)ncnc3c2c2c1COC(C)(C)C2 (configuration not stated)
  i | 2.6
Cc1cc(C)cc(C(=O)N2CCN(Cc3ccc4c(c3)OCO4)CC2)c1
  i | 0.01
O=C(Nc1ccncc1)C1CCC(CNS(=O)(=O)c2cccc3nsnc23)CC1 (configuration not stated)
  i | -0.32
CC(=O)c1ccc(NC(=O)C2CCCN2S(=O)(=O)c2cccs2)cc1 (configuration not stated)
  i | 0.07
c1ccc(-c2nc3ccccc3s2)nc1
  i | 0.66
CC1(C(=O)N2CCC(CC3CC(c4ccc(Cl)cc4)=NO3)(C(=O)NCC3CCCCC3)CC2)CC1 (configuration not stated)
  i | -1.3
COc1ccc(S(=O)(=O)Nc2ccccc2OC)cc1NC(=O)c1cc2ccccc2oc1=O
  i | 0.03
Cc1ccc(C(=O)Oc2ccccc2N2C(=O)C3CCCCC3C2=O)cc1 (configuration not stated)
  i | -0.01
CCCCn1c(=O)[nH]c(=O)c2c1nc(-c1ccc(-c3ccc(F)cc3)o1)n2C
  i | 0.69
Nc1c(C(=O)c2ccc(Cl)cc2)sc2nsc(SCCN3CCOCC3)c12
  i | -1.4
C=CCNC(=O)c1c[nH]c2ccc(S(=O)(=O)N(C)c3ccc(OCC)cc3)cc2c1=O
  i | -0.23
CC1(C)Cc2c(sc3ncn4c(=S)[nH]nc4c23)CO1
  i | -1
Cc1sc(/N=C/c2c(O)ccc3ccccc23)c(C#N)c1C
  i | 0.21
O=C(c1ccccc1)c1ccc2nc(N3CCCCC3)c3nncn3c2c1
  i | -2.8
O=C(CN1CCc2ccccc21)NCc1ccccc1Cl
  i | 0.69
O=C(CCc1ccccc1)Nc1cc(C(=O)O)cc(C(=O)O)c1
  i | -2.3

A stretch from further up, as a working copy:
Values in the order: KCNQ2 inh | KCNQ2 inh baseline
Cc1sc(/N=C/c2c(O)ccc3ccccc23)c(C#N)c1C
  i | 0.21
O=C(c1ccccc1)c1ccc2nc(N3CCCCC3)c3nncn3c2c1
  i | -2.8
O=C(CN1CCc2ccccc21)NCc1ccccc1Cl
  i | 0.69
O=C(CCc1ccccc1)Nc1cc(C(=O)O)cc(C(=O)O)c1
  i | -2.3

Next part
Values in the order: KCNQ2 inh | KCNQ2 inh baseline
CCCCc1nc(SCC(=O)Nc2cc(C)on2)n[nH]1
  i | 0.7
CCN(C(=O)CN1C(=O)S/C(=C\c2cccc(OC)c2)C1=O)C1CCS(=O)(=O)C1 (configuration not stated)
  i | 0.37
CC1CCCC(C)N1CCNC(=O)C1CCN(S(=O)(=O)N2CCCCC2)CC1 (configuration not stated)
  i | 0.26
CC(OC(=O)Cc1c[nH]c2ccccc12)C(=O)N(C)c1ccccc1 (configuration not stated)
  i | -0.37
Cc1ncc([N+](=O)[O-])n1CCOC(=O)c1cc(Cl)cc(Cl)c1N
  i | 0.01
CSc1cccc(CN2CCC(Oc3ccc(C(=O)N4CCCCC4)cc3)CC2)c1
  i | 0.38
Clc1cccc(COn2c(-c3ccc(Cl)cc3Cl)nc3ncccc32)c1
  i | -0.56
Cc1ccc(-n2nc3c(N4CCC(C(=O)NCc5ccc(C)o5)CC4)nnc(C)c3c2C)cc1
  i | 2.3
Cc1noc(C)c1S(=O)(=O)N1CCCC(C(=O)NCc2ccccc2Cl)C1 (configuration not stated)
  i | 0.24
O=C(Nc1cccnc1)c1coc(=O)c2ccccc12
  i | 3.3
COc1ccc(-c2cc(C(=O)Nc3ccc(C)c(C)c3)no2)cc1
  i | -0.16
O=C(CN(c1cccc(Cl)c1)S(=O)(=O)c1ccc(Cl)cc1)N1CCc2ccccc2C1
  -6.5* | 0.01*
COc1cc(NC(=O)CCNC(=O)Cn2ccc3ccccc3c2=O)cc(OC)c1OC
  i | -0.3
COc1ccccc1C(=O)N(Cc1ccc(Cl)cc1)C1CCS(=O)(=O)C1 (configuration not stated)
  i | -0.91
CCOC(=O)c1cnc2c(C)c(C)ccc2c1Nc1ccc(S(=O)(=O)Nc2ncccn2)cc1
  i | 0.3
Cc1nc2ccc(NC(=O)COc3ccccc3)cc2s1
  i | 1.4
Clc1ccc2nc(CSc3ccccc3)cn2c1
  i | 0.58
CCOc1ccc(C(=O)Nc2nnc(S(=O)(=O)N(C)Cc3ccco3)s2)cc1
  i | 0.32
O=C(COc1ccccc1-c1ccccc1)N/N=C/c1cccc2ccccc12
  -7.8* | 0.92*
O=S(=O)(c1ccccc1)c1nc(-c2ccccc2)oc1N1CCCCC1
  i | 1.1
C[C@@H](C(=O)NCc1ccccn1)[C@@H]1C[C@@]1(C)[C@@H](NC(=O)OCc1ccccc1)c1ccccc1
  i | 0.72
CCn1c(SCC(=O)Nc2ccc3c(c2)oc2ccccc23)nnc1-c1ccc(N)cc1
  i | 0.32
CN(c1ccc(C(=O)Nc2ccc(Cl)cn2)cc1)S(=O)(=O)c1ccccc1
  i | 1.7
CC(NC(=S)Nc1cccc(C(F)(F)F)c1)C(C)(C)C (configuration not stated)
  i | -2.1
O=C(C1CC1)N1N=C(c2cccc(Br)c2)CC1(O)C(F)(F)F (configuration not stated)
  i | 1
COc1ccc(S(=O)(=O)N2CCCCCC2)cc1C(=O)N(C)Cc1ccc(F)cc1
  i | -2.4
NC(=S)Nc1cc(Cl)ccc1Cl
  i | -0.34
CCOc1ccc(-n2c(-c3ccccc3)c[n+]3c2CCCCC3)cc1
  i | -0.89
O=C(NC1CCCCC1)C(c1ccco1)N(C(=O)c1csnn1)c1ccc(Cl)cc1 (configuration not stated)
  i | -0.37
CCOc1ccc(/C=C2\SC(=S)N(NC(=O)c3ccncc3)C2=O)cc1OC
  i | 0.78
CC(C)(Oc1ccc(Cl)cc1)C(=O)Nc1c2c(nn1C(C)(C)C)CS(=O)(=O)C2
  i | 0.11
Cc1cc(C)c(C#N)c(SCS(=O)Cc2ccc(Cl)cc2)n1 (configuration not stated)
  i | -0.33
CCC(C(=O)NCC1CCCO1)N(Cc1ccc(F)cc1)C(=O)CNS(=O)(=O)c1ccccc1 (configuration not stated)
  i | -0.14
S=c1[nH]nc(COc2ccccc2)n1/N=C/c1cccc(Br)c1
  i | 0.84
COc1cccc(OC)c1C(=O)Nc1cccc(C(=O)Nc2cccc(C(=O)O)c2)c1
  i | 0.2
O=S(=O)(CCOc1ccccc1)N1CCOCC1
  i | 0.74
O=C(NCCc1ccccc1)c1c(O)c2ccccc2[nH]c1=O
  i | 0.82
Cc1ccccc1NC(=S)NCC(c1cccnc1)N(C)C (configuration not stated)
  i | 1.4
CC(C)c1ccc(Nc2ncccc2C(=O)O)cc1
  i | -1.3
O=C(NCc1n[nH]c(=S)n1Cc1ccccc1)c1ccccc1
  i | -1.3
CN(CC(=O)Nc1cccc(F)c1)C(=O)c1cccc(-n2cccc2)c1
  i | -0.29
CC1CCN(CCCn2c(SCC(=O)NC3CCCC3)nc3ccccc3c2=O)CC1
  i | 0.15
Cc1ccc(N2CC(C(=O)NCCC(C)C)CC2=O)cc1 (configuration not stated)
  i | -1.1
COc1ccc(C(C)=O)cc1CN1C(=O)NC2(CCCCC2C)C1=O (configuration not stated)
  i | 0.32
CN1CCN(c2nc(C#N)cc(-c3ccccc3)n2)CC1
  i | -0.56
COc1ccc(C(=O)N2CCN(Cc3ccc4c(c3)OCO4)CC2)cc1OC
  i | -0.56
O=C(NC1CCCCC1)c1cc(F)cc2c1OCOC2
  i | -0.83
CCOc1ccc(/C(O)=C2/C(=O)C(=O)N(c3ccccn3)C2c2ccc(F)cc2)c(C)c1 (configuration not stated)
  i | 0.62
CC(C)C[C@@H](CSc1ccc(Br)cc1)N1CCN(CCc2ccccc2)CCC1=O
  i | -0.38
CCOc1ccc(N(CC(=O)NCCSCc2ccccc2Cl)S(C)(=O)=O)cc1
  i | 1.6

The list goes on (seven carried over from the part before).
Values in the order: KCNQ2 inh | KCNQ2 inh baseline
COc1ccc(C(C)=O)cc1CN1C(=O)NC2(CCCCC2C)C1=O (configuration not stated)
  i | 0.32
CN1CCN(c2nc(C#N)cc(-c3ccccc3)n2)CC1
  i | -0.56
COc1ccc(C(=O)N2CCN(Cc3ccc4c(c3)OCO4)CC2)cc1OC
  i | -0.56
O=C(NC1CCCCC1)c1cc(F)cc2c1OCOC2
  i | -0.83
CCOc1ccc(/C(O)=C2/C(=O)C(=O)N(c3ccccn3)C2c2ccc(F)cc2)c(C)c1 (configuration not stated)
  i | 0.62
CC(C)C[C@@H](CSc1ccc(Br)cc1)N1CCN(CCc2ccccc2)CCC1=O
  i | -0.38
CCOc1ccc(N(CC(=O)NCCSCc2ccccc2Cl)S(C)(=O)=O)cc1
  i | 1.6
CN(C(=O)c1cc(COc2c(F)cccc2F)on1)C1CCOC1 (configuration not stated)
  i | -1.1
O=S(=O)(c1cccs1)N1CCN(Cc2nc3ccccc3s2)CC1
  i | 0.27
O=C(O)CSC(C(=O)Nc1ccc(C(F)(F)F)cc1)c1ccccc1 (configuration not stated)
  i | 3.2
Cn1cnnc1Sc1cc(N2CCN(S(=O)(=O)c3ccc4ccccc4c3)CC2)ccc1[N+](=O)[O-]
  i | 0.63
Cn1c(=O)[nH]c(=O)c2[nH]c(CN3CCN(Cc4ccccc4)CC3)nc21
  i | -1.1
CCCCCCCCCCOC(=O)Cn1c(COc2ccccc2OC)[n+](C)c2ccccc21
  i | 0.31
CCOc1cccc(OCCOCCn2cnc3ccccc3c2=O)c1
  i | -1.3
Cc1ccc(N2CC(NS(=O)(=O)c3cc(F)ccc3F)CC2=O)cc1C (configuration not stated)
  i | 0.82
CCCc1nc(SCc2ccccc2Cl)n[nH]1
  i | 0.35
COc1ccccc1N1CCN(CC(=O)Nc2ccc(CN3CCCCC3)cc2)CC1
  i | -0.4
FC(F)(Cl)c1nnc2ccc(Sc3ccccn3)nn12
  i | 0.31
CC1CCN(c2nnc(-c3ccccc3)c3ccccc23)CC1
  -5.8* | 0.17*
